# Bioassay records (PubChem BioAssay)
# UUG fidelity: modulators of yeast start codon fidelity, primary screen, whole organism, S. cerevisiae, single point, plate reader. S. cerevisiae UUG-firefly luciferase reporter, luminescence/redox ratio. activity score, % at 18.7 µM. 350,000 compounds, 0.13% hits. AID 602363, 2012;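 active = replicate mean at a twofold rise or more, about +100% in these data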;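 note: firefly luciferase made from a UUG start codon reports start codon fidelity; reporter light over untreated wells divided by growth signal over untreated wells; some hits fall short of that in this replicate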
# eIF4H FP inh: human eIF4H binding inhibitors, primary screen, translation initiation inhibitor project, biochemical, uHTS, fluorescence polarization | 290,000 compounds, 0.94% hits | Eukaryotic translation initiation factor 4H (Homo sapiens), Q15056 | eIF4H fluorescence polarization binding assay | inhibition, % at 35 µM;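 active = 50% or more with normal probe brightness, or confirmed in later tests; about a fifth of its hits are not listed in these tables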;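 note: calls also rest on retests at 20 µM and on dose response follow-up; 0% = protein and probe with vehicle and 100% = probe without protein; strong numbers were not always called active; many hits fall short of the cut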
# Rce1 inh: yeast Rce1p protease inhibitors, primary screen, biochemical, fluorescence, cell-free homogeneous; CAAX prenyl protease 2 (Saccharomyces cerevisiae (strain ATCC 204508 / S288c)), Q03530; yeast membranes, quenched prenylated peptide cleavage fluorescence; calls only; 290,000 compounds, 0.27% hits; AID 2563, 2010;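 active = fall in fluorescence gain of 50% or more versus controls, with final raw signal at or below 3038400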;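 note: plate controls were neutral control wells for no effect and wells lacking membranes for full effect; tested at 10 µM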
# Target sequence (Q03530 whole entry, looked up): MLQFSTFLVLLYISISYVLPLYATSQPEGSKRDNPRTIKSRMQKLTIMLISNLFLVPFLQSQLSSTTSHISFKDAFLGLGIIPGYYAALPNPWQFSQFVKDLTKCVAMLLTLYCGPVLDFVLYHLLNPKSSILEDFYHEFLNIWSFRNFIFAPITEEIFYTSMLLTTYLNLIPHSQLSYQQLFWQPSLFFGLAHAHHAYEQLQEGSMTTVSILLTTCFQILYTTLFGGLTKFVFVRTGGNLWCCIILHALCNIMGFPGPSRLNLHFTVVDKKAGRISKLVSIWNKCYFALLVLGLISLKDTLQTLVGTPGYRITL
# Env fusion inh: inhibitors of HIV-1 Env-driven cell-cell fusion, primary screen, HeLa-JRFL effector, CEM21 target cells, luciferase; inhibition, % at 12.3 µM; 360,000 compounds, 1.1% hits; AID 651610, 2012;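 active = mean replicate inhibition score of at least 50 and every replicate individually at or above 50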;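 note: 0% = plate neutral controls and 100% = maraviroc near 300 nM; one replicate is shown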
# PABP FP inh: PABP poly(A) RNA binding inhibitors, primary screen, biochemical, fluorescence polarization, uHTS; Polyadenylate-binding protein 1 (Homo sapiens), P11940; AID 2014, 2009; 290,000 compounds, 1% hits; inhibition, % at 35 µM;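 active = 50% or more with normal probe brightness, or confirmed in later tests; about a fifth of its hits are not listed in these tables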;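 note: calls also rest on retests at 20 µM and on dose response follow-up; controls were probe without protein and protein plus probe with vehicle; some compounds called inactive have numbers as strong as hits; many hits fall short of the cut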
# Target sequence (P11940 whole entry, looked up): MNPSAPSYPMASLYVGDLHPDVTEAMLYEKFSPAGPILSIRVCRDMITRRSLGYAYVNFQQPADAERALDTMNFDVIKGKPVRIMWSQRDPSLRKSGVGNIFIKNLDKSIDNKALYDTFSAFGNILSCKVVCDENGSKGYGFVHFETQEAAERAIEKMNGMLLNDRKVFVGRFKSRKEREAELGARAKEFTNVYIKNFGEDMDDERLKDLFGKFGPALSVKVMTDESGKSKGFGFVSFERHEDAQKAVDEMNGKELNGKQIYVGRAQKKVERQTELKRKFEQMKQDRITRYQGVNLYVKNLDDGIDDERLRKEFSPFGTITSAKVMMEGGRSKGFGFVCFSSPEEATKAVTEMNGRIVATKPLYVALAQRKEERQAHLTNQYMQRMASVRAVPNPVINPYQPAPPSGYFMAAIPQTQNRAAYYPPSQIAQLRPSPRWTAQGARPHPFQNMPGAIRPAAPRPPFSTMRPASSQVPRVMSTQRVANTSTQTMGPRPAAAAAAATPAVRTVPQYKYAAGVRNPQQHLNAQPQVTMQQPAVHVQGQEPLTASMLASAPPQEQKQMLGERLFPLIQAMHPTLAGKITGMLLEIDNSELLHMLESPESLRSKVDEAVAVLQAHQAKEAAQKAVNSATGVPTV
# CSC inhib: cancer stem cell viability inhibitors, primary screen, luminescence; 300,000 compounds, 1.1% hits; inhibition, % at 7.5 µM; AID 2717, 2010; cancer stem cell-like cells viability;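 active = mean at 75% or more and at least half the replicates too; tested in HMLE shEcad cells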;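 note: 0% = median of negative and 100% = median of positive control wells; the first replicate is given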
# MT1-MMP act inh: blockers of MT1-MMP proenzyme processing, primary screen, HT1080 RFP-PRO-GFP cells, GFP/RFP fluorescence; Matrix metalloproteinase-14 (Homo sapiens), P50281; GFP/RFP ratio fluorescence, overnight; percent of plate control window, DMSO zero; AID 651647, 2012; GFP/RFP ratio change, % at 20 µM; 360,000 compounds, 0.061% hits;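 active = GFP/RFP ratio change of at least 30% with cell ATP level not reduced by more than half and red fluorescence within 50% of control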; note: strong numbers were not always called active
#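 Assay system: HT1080 RFP-PRO-GFP cells | Dosing: 20 µM single dose, 1% DMSO | Incubation: Cells overnight before dosing, compound overnight, 37 °C, 5% CO2 | Evaluation: GFP/RFP fluorescence ratio | Control set: DMSO-only wells and HT1080 RFP-L50D-GFP cell wells as references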
# MT1-MMP act inh RFP: second read-out of MT1-MMP act inh, no call of its own (marks repeat the call); RFP signal change, %; measured here: RFP expression control read;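 0 = vehicle wells; hits needed this value within 50% of zero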
# The depositor's hits bear a star; i = inactive; nt = no result given. Some of the compounds tested (hit frequency here may not be typical).
# Below each SMILES: UUG fidelity	eIF4H FP inh	Rce1 inh	Env fusion inh	PABP FP inh	CSC inhib	MT1-MMP act inh	MT1-MMP act inh RFP
CCO[C@H]1OC(C(=O)N2CCN(Cc3ccc4c(c3)OCO4)CC2)=C[C@@H](c2cn(C(C)=O)c3ccccc23)[C@@H]1CCCO
    -1	-2	i	-11	-5	3	-2	0
O=C(O)C1C2CCC(O2)C1C(=O)Nc1ccccc1Br (centres undefined)
    -3	12	i	-25	2	-8	4	3
CSCCCN1CCCC(CO)(Cc2ccc(F)cc2)C1 (centres undefined)
    -5	-5	i	14	1	20	2	1
CC1CCCCC1NC(=O)C1CC(=O)N(Cc2ccccc2)C1 (centres undefined)
    -3	9	i	50	14	-8	0	2
NC(=O)COc1cc2oc(=O)c3c(c2cc1Cl)CCCC3
    -2	-4	i	-317	11	-14	0	0
CCOC(=O)N1CCN(C(=O)CSc2nnc(-c3cccc(OC)c3)o2)CC1
    -18	2	i	nt	2	4	4	5
O=C(CSc1nc(-c2ccccc2)cc(C(F)(F)F)n1)NCCN1CCOCC1
    -11	-6	i	nt	3	-7	3	4
O=C(NCc1ccc(F)cc1)C1CCN(S(=O)(=O)N2CCOCC2)CC1
    -1	-3	i	10	-5	-11	1	2
CCOC(=O)CNc1ncc([N+](=O)[O-])cc1C#N
    nt	2	i	nt	-8	3	-15	-2
O=C(NCCc1cccc(Cl)c1)c1ccc(Cl)c([N+](=O)[O-])c1
    nt	0	i	22	4	-1	-5	-4
O=C1Nc2ccccc2C(=O)N2[C@H](c3ccccc3)[C@@H]3C(=O)N(Cc4ccccc4)C(=O)[C@@H]3[C@H]12
    8	3	i	24	9	3	-1	0
Cc1ccccc1Nc1nc(N)nc(CN(C)c2ccccc2)n1
    -18	0	i	nt	-1	6	3	1
COC(=O)c1c(C)oc(C)c1S(=O)(=O)NC(c1ccccc1)c1ccccc1
    -17	2	i	68*	7	4	1	-2
COc1ccc(N2CCN(C(=O)Cc3ccc(Br)cc3)CC2)cc1
    nt	1	i	17	14	-1	5	-4
CCOC(=O)c1ccc(OCc2c(C)noc2C)cc1
    -2	1	nt	-60	1	-1	-1	2
COc1ccccc1-c1nnc2sc(-c3cc4ccccc4o3)nn12
    -8	2	i	-113	7	60	4	-2
COc1ccc(-c2ccc(C(=S)N3CCN(C(C)=O)CC3)o2)cc1
    -16	-16	i	-21	1	-6	2	1
NC(c1csc(Nc2nccc(C(F)(F)F)n2)n1)C1CCCCC1 (centres undefined)
    -5	nt	nt	-29	nt	nt	-2	0
CCCN(CCC)S(=O)(=O)c1ccc(C(=O)Nc2ccc(OCC(=O)N3CCOCC3)cc2)cc1
    -4	4	i	-14	0	-8	4	-11
CC(=O)c1sc(Nc2ccc(C)cc2)nc1C
    nt	-13	i	-1	-4	0	-1	-2

# Rewritten with each value named: entries from further up
COc1ccc(-c2ccc(C(=S)N3CCN(C(C)=O)CC3)o2)cc1
  UUG fidelity: -16; eIF4H FP inh: -16; Rce1 inh: i; Env fusion inh: -21; PABP FP inh: 1; CSC inhib: -6; MT1-MMP act inh: 2; MT1-MMP act inh RFP: 1

NC(c1csc(Nc2nccc(C(F)(F)F)n2)n1)C1CCCCC1 (centres undefined)
  UUG fidelity: -5; eIF4H FP inh: nt; Rce1 inh: nt; Env fusion inh: -29; PABP FP inh: nt; CSC inhib: nt; MT1-MMP act inh: -2; MT1-MMP act inh RFP: 0

CCCN(CCC)S(=O)(=O)c1ccc(C(=O)Nc2ccc(OCC(=O)N3CCOCC3)cc2)cc1
  UUG fidelity: -4; eIF4H FP inh: 4; Rce1 inh: i; Env fusion inh: -14; PABP FP inh: 0; CSC inhib: -8; MT1-MMP act inh: 4; MT1-MMP act inh RFP: -11

# Remaining list, next part
# Below each SMILES: UUG fidelity	eIF4H FP inh	Rce1 inh	Env fusion inh	PABP FP inh	CSC inhib	MT1-MMP act inh	MT1-MMP act inh RFP
Cc1ccc(NC(=O)[C@H](C)NC(=O)C2CCN(C(=O)[C@@H](N)CC(C)C)CC2)cc1
    -9	-2	i	-19	10	-13	-2	0
CCOCCn1c(SCc2ccc(F)cc2)nc2c1c(=O)[nH]c(=O)n2C
    -5	1	i	18	0	2	4	6
COc1ccccc1NC(=O)CSc1nnc(-c2ccoc2C)n1CCc1ccccc1
    0	-7	i	62*	-8	2	-2	-4
CCOc1cc(NC(=S)NCCCN2CCOCC2)c(OCC)cc1NC(=O)c1cccc(C)c1
    nt	13	nt	13	2	nt	4	4
Cc1cccc(CN2CCCC(C(=O)Nc3ccc(-c4cscn4)cc3)C2)c1 (centres undefined)
    -13	-4	i	12	-12	39	0	1
CCOCC(=O)N1CCCC(C(=O)OCC)C1 (centres undefined)
    -18	43	i	nt	7	0	-5	-1
CCOC(=O)c1c(C)c(C(=O)NCCOC)c(C)n1CC
    -3	-4	i	nt	5	-3	0	3
CCOc1ccc(CCNC(=O)c2ccc(C)c(S(=O)(=O)N3CCOCC3)c2)cc1OCC
    -10	nt	nt	15	nt	nt	8	-5
CS(=O)(=O)N1CCN(c2ccc(C(=O)NC34CC5CC(CC(C5)C3)C4)cc2[N+](=O)[O-])CC1
    -24	-6	i	23	17	-1	6	2
O=c1c2ccccc2n(Cc2ccccc2F)c(=O)n1Cc1ccccc1F
    nt	-1	i	-90	2	-8	-6	-5
Cc1cc(=O)c2cc(NC(=O)c3ccccc3Cl)ccc2[nH]1
    1	-2	i	3	2	-11	0	0
Cc1ccc(-c2cc3c(N=O)c4ccccc4c-3n[nH]2)cc1
    nt	24	i	-161	40	87*	4	4
Cc1ccc(OCC(=O)Nc2ccc(-c3nc4ncccc4o3)cc2)c(C)c1
    -9	-1	i	nt	-5	10	11	5
O=C(CSc1nncn1-c1ccccn1)Nc1ccccc1Cl
    0	0	i	-7	-2	-10	2	4
CCCc1cc(=O)[nH]c(SCC(=O)NC(=O)NC2CCCC2)n1
    -2	nt	nt	4	nt	nt	8	-27
CC1(NC(=S)NCCCCCCNC(=S)NC2(C)CCS(=O)(=O)C2)CCS(=O)(=O)C1 (centres undefined)
    -23	6	i	13	-2	0	2	-1
CC(=O)Nc1ccc(NC(=O)CC2CCCC2)cc1
    -19	4	nt	30	-8	-14	2	5
CN(C)CCN(C(=O)c1ccc(C(=O)c2ccccc2)cc1)c1nc2cc3c(cc2s1)OCO3
    3	-10	i	nt	-1	-2	-1	-6
CNc1cc(Cl)nc(SC)n1
    nt	-6	i	9	-4	-5	-7	-1
CSc1cccc(NC(=S)N2CCCN(Cc3ccccc3F)C2)c1
    nt	-6	i	3	6	1	2	2
CCCCCC(=O)N/N=C/c1ccccc1[N+](=O)[O-]
    nt	5	i	-13	13	-1	0	1
CC1=C(C(=O)OC(C)(C)C)C(c2ccc(Br)cc2)NC(=O)N1CCCC(=O)O (centres undefined)
    nt	2	i	8	5	-7	nt	nt
COc1c(C)cc(C(O)c2ncc(-c3ccccc3C(F)(F)F)[nH]2)cc1C (centres undefined)
    -13	nt	nt	-13	nt	nt	-3	-8
CCCC(=O)Nc1nc(-c2ccccc2)c(CC)s1
    nt	-7	i	-4	1	-7	-4	-6
Cc1ccc2cc(-c3noc(C(C)(C)C)n3)c(=O)[nH]c2c1
    -15	-10	i	-32	2	3	5	0
Cc1ccc(CN2CC(C(=O)N(CC(C)C)c3c(N)n(Cc4ccccc4)c(=O)[nH]c3=O)CC2=O)cc1 (centres undefined)
    3	nt	nt	15	nt	nt	-1	-1
COc1cc2nc(C(C)(C)C)oc(=O)c2cc1OC
    nt	-3	i	3	2	-6	-4	1
CN(C)c1ccc(/C=C2\Oc3ccc(C#Cc4cccc(N)c4)cc3C2=O)cc1
    -20	nt	nt	nt	nt	17	-94	7
COc1ccc(O[C@H]2C=C[C@@H](c3ccccc3)O[C@@H]2COC(=O)CC/C(C)=N/O[C@@H](C)c2cc(-c3c(C)cc(C)cc3C)no2)cc1
    nt	-6	i	nt	5	nt	nt	nt
O=C(CCn1c(=O)oc2ccccc21)N1CCOCC1
    -2	1	i	-22	4	11	0	3
CC(=O)N1c2ccc(S(=O)(=O)N3CCC(C(=O)Nc4cccc(C)c4C)CC3)cc2CC1C (centres undefined)
    -5	2	i	-1	5	-12	2	-5
O=C(COc1ncnc2ccccc12)N1CCN(S(=O)(=O)c2ccc(Cl)cc2)CC1
    -19	-6	i	-4	6	nt	4	2
CCCC(C)NC(=O)COC(=O)c1cc(Br)c(Br)s1 (centres undefined)
    -13	-10	i	-4	4	-5	1	3
CC(C)(C)NC(=O)NC(=O)CN1CCN(c2cccc(Cl)c2)CC1
    nt	-16	i	19	6	-6	0	-5
CCCC(=O)Nc1ccc(NC(=O)c2ccccc2OC)cn1
    -16	12	nt	-25	14	-9	2	-1
O=C(Nc1ccc2c(c1)OCCO2)c1cnccn1
    -25	-4	i	nt	-2	0	5	4
CC(=O)c1sc(N/N=C\c2cccc(Br)c2)nc1C
    nt	-8	i	-49	-9	20	-90	2
CCc1nc2ccc(C(=O)NCCCN3CCCC3=O)cn2c1N(C=O)CC
    -14	nt	nt	2	nt	nt	-2	3
CCc1cc2cc(C)cc(C)c2nc1SCC(=O)NNC(=O)c1ccco1
    nt	-5	i	0	-11	-1	-1	5
CC(C)C(NC(=O)C(Cc1ccccc1)NC(=O)OCc1ccccc1)C(=O)O (centres undefined)
    nt	2	i	9	8	7	0	7
Cc1cc(C)cc(OCC(=O)NCCc2nc3ccccc3[nH]2)c1
    -16	2	i	-8	6	12	1	1
CS(=O)(=O)Nc1ccc(Cc2ccc(NS(C)(=O)=O)cc2)cc1
    15	-1	i	-2	-4	-5	2	-3
CC(C)(C)c1cc(Cl)ccc1OCCn1ccnc1
    -8	4	i	14	1	-9	2	-10
Cc1nc2ncccn2c1-c1csc(Nc2ccc(N(C)C)cc2)n1
    nt	-6	i	-104	-6	nt	10	-3
O=C(NCc1ccccn1)c1cc(-c2ccc(-c3ccccc3)cc2)nc2ccccc12
    nt	-18	i	-126	4	50	-5	-9
Cc1ccc2c(c1)C(=O)C(=O)N2Cc1ccc(Br)cc1
    -13	nt	nt	13	nt	nt	8	8
CC1CCCC(NC(=O)CCn2c(=S)oc3ccccc32)C1C (centres undefined)
    -12	-9	i	17	7	-11	-3	-2
CC(=O)Nc1ccc(S(=O)(=O)NC(C)c2ccccc2)cc1 (centres undefined)
    -7	-3	i	-2	-4	-8	3	-2
CCCCCC1C/C(=N\O)C=C(C)C1C(=O)OC (centres undefined)
    -6	-6	nt	14	7	0	-1	-3
C/C=C(\C)C(=O)NCCN1C2=NC[C@H](C)N2C[C@@H]1Cc1ccc(OC)cc1
    -20	-2	i	8	8	-5	-2	-5
CCOC(=O)C1(Cc2ccc(Cl)cc2)CCN(Cc2cn(CC)nc2C)CC1
    -13	2	i	14	-1	24	-3	-9
O=C(CN1C(=O)C2C3C=CC(C3)C2C1=O)NCCN1CCCc2ccccc21 (centres undefined)
    -6	21	i	nt	18	3	5	4
CC(C)SC1=NC(C)(C)C=C(/C=C/c2ccc(Cl)cc2Cl)N1
    nt	-4	i	nt	-1	51	-13	-8
CSc1cc(C)n(-c2ccccc2C)c(=S)c1C(C)=O
    -6	-6	i	nt	1	-13	-2	2
CC(NC(=O)c1ccc2ccccc2n1)c1ccc(Br)cc1 (centres undefined)
    -10	-14	i	16	2	23	-3	-1
COC(=O)CCn1nnc(-c2ccc(C)cc2)n1
    -11	-18	i	-3	0	-2	-5	-1
Cc1[nH]nc2c1C(c1cccs1)C(C#N)=C(N)O2 (centres undefined)
    nt	-3	i	4	-9	-12	3	2
